Screens as filed in PubChem BioAssay.
HNF4A DNA FP – change in binding of human HNF4A to DNA, primary screen, biochemical, fluorescence polarization, FITC-DNA; Hepatocyte nuclear factor 4-alpha (Homo sapiens), P41235; 1 h; activity change, % at 10 µM; 0.3% of 360,000 active; AID 1224865, 2016; in the data active = activity change above about 30%, passing the limit was not always enough;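 note: controls were the assay level and a saturating level of protein; the project sought stronger binding though the title names inhibitors; some compounds called inactive have numbers as strong as hits; positive values seem to mean higher polarization but the record does not say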
Target sequence (P41235 whole entry, looked up): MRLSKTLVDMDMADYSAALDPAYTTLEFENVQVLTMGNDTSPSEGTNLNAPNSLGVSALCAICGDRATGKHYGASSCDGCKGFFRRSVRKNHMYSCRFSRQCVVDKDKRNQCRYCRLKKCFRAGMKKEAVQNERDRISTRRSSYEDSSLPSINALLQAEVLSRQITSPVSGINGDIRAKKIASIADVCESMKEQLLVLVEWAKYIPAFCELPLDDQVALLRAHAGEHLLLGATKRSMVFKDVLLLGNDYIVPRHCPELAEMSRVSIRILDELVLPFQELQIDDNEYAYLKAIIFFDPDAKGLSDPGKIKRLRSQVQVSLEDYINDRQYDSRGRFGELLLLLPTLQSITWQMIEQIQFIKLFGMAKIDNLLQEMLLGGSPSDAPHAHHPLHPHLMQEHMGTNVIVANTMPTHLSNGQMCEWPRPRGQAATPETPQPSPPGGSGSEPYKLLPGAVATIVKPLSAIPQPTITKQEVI
Vif TR-FRET – inhibitors of Vif binding to APOBEC3G peptide, primary screen, biochemical, TR-FRET, GST-Vif 1-94, biotin-A3G peptide, dose response retest (AID 1117319). Virion infectivity factor (Human immunodeficiency virus type 1 group M subtype B (isolate …. TR-FRET GST-Vif / biotin-A3G peptide binding; higher % means a stronger effect; test concentration not given here; strong numbers were not always called active. inhibition, %, or IC50 in µM where a hit was titrated. 0.57% of 260,000 active;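 active = above the screen mean plus three standard deviations and confirmed in dose response; inconclusive = results disagree or hit not tested in dose response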;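 note: Vif residues 1-94 fused to GST binding biotinylated APOBEC3G peptide 110-148; 0% = full assay without inhibitor and 100% = GST in place of GST-Vif; retest series ran down from 100 µM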
UCH37 inh – inhibitors of human UCH37 deubiquitinase, primary screen, biochemical, Ub-AMC cleavage, fluorescence | purified proteasome/UCH37 | 0.33% of 330,000 active | inhibition, % (concentration not given with the values) | AID 588478, 2011;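 active = mean of two replicates above 20%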;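 note: 0% = compound-free wells with enzyme and 100% = wells lacking proteasome; stock transfer was 100 nL into about 20 µL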
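system = Proteasome-associated human UCH37 deubiquitinase | amount = 0.15 nM proteasome as dispensed | medium = pH 7.4 Tris-HCl (50 mM) with ovalbumin, ATP-MgCl2, DTT | incubation = 30 min preincubation with enzyme, 25 min cleavage at room temperature | detection = AMC fluorescence 355/460 nm | read-out basis = percent inhibition | controls = no-proteasome and no-compound wells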
E coli growth – E. coli growth inhibition, primary screen, OD600; AID 1053175, 2014; 0.21% of 330,000 active; Escherichia coli growth, 23 h; stronger effect = lower value; OD600 absorbance (concentration not given with the values);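 active = OD600 absorbance below the run mean of sample wells minus 3.6 SD, in any replicate, cut at about 0.56 in these data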;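 note: stock transfer was 300 nL into about 60 µL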
B2AR ag – beta2AR agonists driving receptor internalization, primary screen, cell-based, FAP fluorogen, flow cytometry; AID 504454, 2011; 0.43% of 340,000 active; response, % (no concentration beside the values); Am2.2-beta2AR cells; reference of the scale not given here;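 active = response above a set limit, near 3 SD of response in nonfluorescent compounds, cut at about 42% in these data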;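 note: stock transfer was 100 nL into about 11 µL; a reference agonist was the positive control; negative values mostly stem from fluorescent compounds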
Target sequence (P07550 whole entry, looked up): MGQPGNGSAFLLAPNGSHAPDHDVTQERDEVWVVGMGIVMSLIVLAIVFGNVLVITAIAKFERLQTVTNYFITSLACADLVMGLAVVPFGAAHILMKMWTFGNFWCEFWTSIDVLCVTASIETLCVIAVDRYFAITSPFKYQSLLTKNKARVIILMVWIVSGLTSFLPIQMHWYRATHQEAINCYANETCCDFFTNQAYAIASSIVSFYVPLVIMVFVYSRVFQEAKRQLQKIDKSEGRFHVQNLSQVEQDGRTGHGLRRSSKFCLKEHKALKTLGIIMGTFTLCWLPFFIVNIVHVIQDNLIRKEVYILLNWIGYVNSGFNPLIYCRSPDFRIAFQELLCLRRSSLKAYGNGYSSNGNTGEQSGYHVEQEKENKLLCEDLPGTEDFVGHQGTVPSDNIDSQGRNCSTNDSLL
Bfl-1 A1 inh – caspase 3/7 activation in MEF A1-2A-BIM cells, primary screen, A1 inhibitor project, cell-based, luminescence, HTS; caspase activation, % (test concentration not listed); Caspase-Glo 3/7 luminescence, 3 h; percent of clofoctol response, vehicle zero; 0.066% of 330,000 active;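 active = over half of replicate activation scores above 10%, or exactly half above 10 with the replicate mean above 10; inconclusive = replicate mean below 10 yet half the replicates above 10; inactive = over half of replicates below 10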;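 note: wells of about 30 µL received 50 nL stock; many hits fall short of the cut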
LANA-H2A inh – blockers of LANA interaction with H2A/H2B – biochemical, FP readout, HTS, primary screen. Protein LANA1 (Human herpesvirus 8 type P (isolate GK18)), Q9QR71. cell-free LANA-H2A/H2B peptide, fluorescence polarization. inhibition, % (no concentration beside the values). 0.6% of 320,000 active. AID 2629, 2010; in the data active = inhibition mostly above about 10%, no sharp cut-off; inactive = mostly below about 6.7%;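 note: stock transfer was 7.5 nL into about 10 µL; 0% = median of vehicle wells and 100% = median of positive control wells; one replicate is shown; the record names a cut of 25% in any replicate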
Starred values were filed as active, the others as inactive; u = inconclusive; x = not tested or not shown; & = joins results of further samples.

mol	LANA-H2A inh	B2AR ag	UCH37 inh	HNF4A DNA FP	Vif TR-FRET	Bfl-1 A1 inh	E coli growth
CCOc1ccc(C2C(C#N)=C(N)Oc3cc(C)[nH]c(=O)c32)cc1OC (stereo not given)	-0.6	3	2.0	-2.3	-6%	0.1	0.66
COC(=O)c1ccc(C2C(Oc3ccccc3)C(=O)N2CCc2ccc(F)cc2)cc1 (stereo not given)	-0.5	-15	0.3	0.1	-6%	-0.3	0.75
O=C(CN1CCN(C(=O)c2ccco2)CC1)N1CCc2[nH]c3ccccc3c2C1	-4.6	x	-2.1	x	x	2.7	0.65
O=C(CCc1c[nH]c2ccccc12)N1CCN(c2ccc(F)cc2)CC1	8.0	x	0.3	-3.5	-3%	-0.1	0.68
COc1ccc(NC(=O)CSc2nc3c(c(=O)n(C)c(=O)n3C)n2C)c(OC)c1	0.7	-8	6.8	3.7	-6%	-0.2	0.68
NC(=O)Cc1nc(-c2ccc(F)cc2)cs1	3.2	-5	3.8	2.9	-1%	0.1	0.66
CN(C(=O)c1cccc(NC(=O)C2CCCN(C(=O)OC(C)(C)C)C2)c1)C1CCCC1 (stereo not given)	0.8	3	0.0	-5.6	x	1.7	0.7
Cc1nn(-c2ccc(Cl)cc2)c(N)c1C(O)(CSc1nccn1C)C(F)(F)F (stereo not given)	9.6	0	1.2	2.2	-1%	1.2	0.63
CC(C)(C)c1ccc(/C=C(\C#N)C(=O)NC2CC2)cc1	1.7	1	2.0	2.4	x	-0.9	0.63
CCCOc1ccc(CSc2n[nH]c(C)n2)cc1	2.0	-16	x	-1.4	-4%	-7.2	x
CC(=O)c1c(C)[nH]c(C(=O)Nc2ccc(C)cc2Br)c1C	-7.9	4	0.6	-4.1	-8%	-0.4	0.71
COc1ccccc1CNC(=O)COC(=O)Cc1cccc(F)c1	3.4	-2	1.4	0.7	x	1.2	0.66
CCc1ccc(C(=O)Nc2ccc3c(c2)n(C)c(=O)n3C)cc1	-2.9	3	0.7	3.7	4%	0.5	0.64
COCCn1c(SCC(=O)NC2CCCC2)nnc1C(C)C	0.5	5	3.8	2.4	x	0.1	0.66
Cc1ccc(-c2nnc(SCC(=O)N3CCCC3)o2)cc1C	-4.4	-2	5.8	1.2	18%	-0.6	0.78
COc1ccc([C@@H]2Sc3cc(OC)ccc3N(CCN(C(C)C)C(C)C)C(=O)[C@H]2OC(C)=O)cc1	0.9	-6	2.8	5.1	14%	0.6	0.72
CCOC(=O)C1CCCN(C(=O)c2[nH]c3ccc(OC)cc3c2C)C1 (stereo not given)	-0.1	10	-2.7	-2.8	0%	1.3	0.66
CC1CCCCC1NC(=O)COc1ncnc2sccc12 (stereo not given)	x	6	0.0	1.1	x	x	0.6
O=C(COc1ccc2ccccc2c1)NNC(=O)Nc1ccccc1F	-2.1	8	-0.5	-1.8	x	0.4	0.69
Cc1ccc(C2CC(=O)NC(SCC(N)=O)=C2C#N)s1 (stereo not given)	0.4	31	6.0	-4.7	-1%	-1.5	0.69
Cc1cc(-c2ccccc2)nc2oc(C(=O)NN)c(N)c12	3.0	-3	-30	4.5	-9%	0.5	0.7
O=C1NC(=O)/C(=C/C(=O)N2CCOCC2)S1	-5.8	0	6.2	1.1	4%	-0.3	0.72
CC1=C(C(=O)OCC(C)C)C(c2ccccc2Cl)NC(=O)N1C (stereo not given)	-0.7	-2	3.1	-2.0	1%	0.8	0.76
CC1(C)CC(=O)C2=C(C1)OC(N)=C(C#N)C2c1cccs1 (stereo not given)	-2.4	4	5.3	0.2	-3%	0.1	0.74
O=c1[nH]c(CSc2nnc3ccccn23)nc2cc(C(F)(F)F)ccc12	3.9	x	1.8	x	9%	1.5	0.64
CC(C)(C)c1nc(CN2CCOCC2)cc(CN2CCOCC2)c1O	0.9	3	5.5	-2.4	6%	0.4	0.7
CCOC(=O)c1nn(-c2sc(C(=O)OC)c(C)c2C(=O)OC)cc1O	-0.8	-9	0.7	2.4	-13%	-0.2	0.64
CCOc1ccc(NS(=O)(=O)c2ccc(NC(=O)C3CCCO3)cc2)cc1 (stereo not given)	1.7	-3	3.1	-0.8	-8%	0.8	0.71
O=C(CCCCn1c(=O)c2ccccc2n(Cc2ccc(F)cc2)c1=O)NCc1ccco1	-3.9	-12	1.7	-0.3	3%	-0.2	0.7
CCOC(=O)c1ccc(NC(=O)CSc2ccc(-c3ccccn3)nn2)cc1	1.5	-1	3.0	-0.6	x	-0.1	0.73
Cc1ccc(C)c(N2CC(C(=O)OCC(=O)Nc3cc(C)on3)CC2=O)c1 (stereo not given)	5.9	6	0.9	1.6	x	0.0	0.66
O=C(CC1SC(=NCc2ccccc2)NC1=O)Nc1ccccc1 (stereo not given)	4.6	-11	6.8	1.6	x	0.6	0.68
CCC(C)C(NC(=O)c1ccc(Cl)cc1)C(=O)O (stereo not given)	5.9	3	-0.4	0.3	u	0.5	0.74
COC(=O)c1c(NS(=O)(=O)c2cccs2)sc2c1CCCC2	0.3	10	2.2	-2.6	9%	-0.8	0.73
COC1=C(OC)C(=O)C(Sc2ccc3ccccc3c2)=CC1=O	x	16	x	-1.4	8.7µM*	x	x
Cc1c(CC(=O)NCCCC(=O)O)c(=O)oc2c(C)c3oc4c(c3cc12)CCCC4	-5.2	3	-24	0.4	-6%	0.2	0.68
CCOC(=O)c1nc(C)sc1-c1ccnn1S(=O)(=O)c1cccc(Cl)c1	-1.6	-7	5.1	0.1	-1%	-0.6	0.66
CCOC(=O)C1=C(C)NC(SCC(=O)Nc2nc(C)cs2)=C(C#N)C1c1cccs1 (stereo not given)	1.1	x	-3.3	x	20%	0.7	0.69
Cc1ccc(-c2nc(SC(C)C(=O)N3CCOCC3)n[nH]2)cc1 (stereo not given)	1.5	8	-0.9	1.3	-2%	-0.1	0.72
CCCCN(C)C(=S)Nc1ccsc1C(=O)OC	3.3	-2	5.6	0.1	6%	0.2	0.69
CCOc1cccc(-c2nnc3sc(COc4ccc(OC)cc4)nn23)c1	-2.3	4	-1.0	-4.7	-8%	-0.1	0.7
COc1ccc(CCC(=O)Nc2cccc(S(=O)(=O)N3CCCCCC3)c2)cc1	x	4	1.8	3.5	-11%	x	0.63
O=C(CN1C(=O)COc2ccccc21)N(Cc1cccnc1)Cc1ccccc1F	-4.7	-1	4.8	0.1	3%&0%	-0.9	0.64
N=C1S/C(=C\c2cn[nH]c2-c2ccc(F)cc2)C(=O)N1c1ccccc1F	2.4	2	-11	-1.3	x	-1.2	0.68
O=C(c1sccc1-n1cccc1)N1CCCC1	1.3	-5	5.5	-2.2	-4%	1.4	0.66
Cc1cc2[nH]c(=O)c(=O)[nH]c2cc1S(=O)(=O)NC1CCC(C)CC1 (stereo not given)	4.0	5	-122	-1.1	x	0.8	0.7
Cn1cccc1Cc1nnc(SCC(=O)NC2CCCC2)n1-c1ccc(F)cc1	-2.1	-10	0.6	3.1	8%	-0.6	0.74
O=C(N/N=C/c1sc(=O)n(-c2ccccc2)c1Cl)c1ccncc1	-1.8	5	x	21	u	-0.8	x
CC(=O)NS(=O)(=O)c1ccc(NC(=S)NC(=O)Cc2ccccc2)cc1	2.0	3	1.1	-2.5	31%	0.5	0.67
COc1cccc(C(=O)NCCCNC(=O)c2ccco2)c1	3.3	8	1.5	1.9	x	-0.6	0.66

(further entries)
mol	LANA-H2A inh	B2AR ag	UCH37 inh	HNF4A DNA FP	Vif TR-FRET	Bfl-1 A1 inh	E coli growth
O=C(Cc1ccc(F)cc1)N1CCN=C1SCc1ccc([N+](=O)[O-])cc1	-0.2	-3	0.7	-1.4	x	-0.5	0.73
Cc1ccc2nc(-c3ccc4c(c3)NC(=O)CO4)cn2c1	-5.7	7	-23	2.9	-5%	-1.0	0.65
Cc1cccc(-c2nc(Nc3ccc(O)cc3)c3ccccc3n2)c1	-7.4	-11	-47	7.3	x	u	0.64
CCc1ccc(CNC(=O)C2CCCN(S(=O)(=O)N3CC(C)CC(C)C3)C2)cc1 (stereo not given)	-2.0	-3	1.9	0.8	x	0.0	0.73
CCN(CC)CCN1C(=O)C(=O)/C(=C(/O)c2ccc(OC)c(OC)c2)C1c1ccccn1 (stereo not given)	-0.1	-6	9.3	1.4	-1%	0.1	0.68
Cc1ccnc(NC(=O)Cn2cc([N+](=O)[O-])cn2)c1	1.9	2	4.7	-4.5	-7%	0.3	0.71
COc1ccc(C(=O)CSc2n[nH]c(C)n2)cc1[N+](=O)[O-]	-5.7	-2	4.4	0.6	x	0.3	0.63
Cc1[nH]c2ccccc2c1C(O)c1ccncc1 (stereo not given)	-1.6	1	0.3	-0.5	2%	-0.6	0.7
O=C(CN1CCCCC1)NCCNc1ccc(C(F)(F)F)cc1[N+](=O)[O-]	-3.1	-9	5.7	-1.0	-2%	0.7	0.67
Cc1ccc(SCc2cn3c(C)csc3n2)cc1	14	-20	-0.1	2.6	16%	-11	0.66
CCCOP(=O)(c1ccc(N(C)C)cc1)C(O)c1ccncc1 (stereo not given)	-2.7	-9	1.9	1.8	8%	-0.2	0.71
CCN1/C(=C/C(=O)c2ccco2)Sc2ccccc21	4.5	-4	-3.2	2.5	11%	0.0	x
O=C(CSc1nc2ccccc2c(=O)n1-c1ccc(SC(F)F)cc1)Nc1ccc(N2CCOCC2)cc1	2.9	4	-0.5	-4.1	-3%	0.4	0.71
COc1cccc(-c2c(C(=O)N/N=C/c3cccs3)nnn2-c2nonc2N)c1	0.5	-8	x	-2.5	4%	-0.8	x
COc1cc(C(=O)NCc2nnc(SCC(=O)NCc3ccco3)o2)cc(OC)c1OC	3.6	-3	3.3	0.0	x	-0.3	0.63
CS(=O)(=O)C1=C(O)C(=O)N(CCCC(=O)O)C1c1ccccc1F (stereo not given)	8.0	1	3.2	0.2	-1%	0.1	0.65
CCOc1ccc(CC(=O)Nc2cccc(-c3ccc4nnc(C)n4n3)c2)cc1	-2.4	-8	0.5	4.8	20%	0.5	0.68
Clc1ccc(CN2C3=NCCN3c3ccccc32)cc1	-2.3	9	6.4	1.1	1%	0.1	0.73
O=C(Nc1ccc(-c2csnn2)cc1)C1CC1	2.2	-12	2.1	14	3%	-0.1	0.66
COc1ccc(OC)c(C2C(C(=O)c3cccs3)=C(O)C(=O)N2CCN2CCOCC2)c1 (stereo not given)	4.4	-1	5.0	1.4	-3%	0.2	0.68
Cc1ccc(C(=O)OC(C)CN2CCOCC2)cc1 (stereo not given)	1.3	-1	x	-2.3	-2%	-0.3	x
Cn1cnc2cc(NC(=O)c3cccs3)ccc21	0.2	-12	-0.6	3.4	20%	-0.5	0.68
O=C1CC2(CCN(C(=O)COc3ccccc3F)CC2)Oc2ccccc21	0.1	2	-28	0.0	2%	-0.3	0.69

The order is random; about 2.1% have a hit in one of these screens.
